Screening results from PubChem.
Vaccinia stage = blocks a specific stage of Vaccinia orthopoxvirus infection, primary screen, cell-based, single point; AID 1053133, 2014; Vaccinia-infected cells, mCherry/Venus stage reporter fluorescence; hits give low values; some inactives read as strong as hits; hit rate 0.01% among 89,000; activity change (mCherry), % (concentration not given with the values);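 active means mCherry past -33% and 40 or more points under the early reporter, replicates agreeing; inconclusive means past -33% without that gap or agreement; tested in A549 cells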;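 further: scaled between vehicle wells and reference inhibitor wells; 23 nL library stock went into each well; one replicate is shown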
Vaccinia stage Venus = second read-out of Vaccinia stage, no call of its own (marks repeat the call); activity change (Venus), %; measured here: Venus reporter, other viral stage;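 negative = less Venus signal; first of two replicates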
Starred values were filed as active, the others as inactive; ? = inconclusive; nt = not tested or not shown. Some of the compounds tested (hit frequency here may not be typical).

Values run as follows: Vaccinia stage	Vaccinia stage Venus
> CCC(=O)Nc1ccc2c(c1)OC[C@H](C)N(Cc1ccccc1C(=O)O)C[C@H](C)[C@@H](OC)CN(C)C2=O
→ -16	-10
> CN(C)C(=O)[C@@H]1[C@@H](CO)[C@@H]2Cn3c(cccc3=O)[C@H]1N2C(=O)c1ccccc1
→ -2	2
> C[C@H]1CN([C@@H](C)CO)C(=O)CCCn2cc(nn2)CO[C@H]1CN(C)Cc1ccccc1
→ 15	16
> N#C[C@H]1[C@H](c2ccc(C#Cc3ccccc3F)cc2)[C@@H](CO)N1C(=O)C1CCC1
→ -4	-6
> CC=Cc1ccc2n(c1=O)C[C@@H]1[C@@H](CO)[C@H](C(=O)NC3CCCC3)N(C(=O)C3CCC3)[C@H]21 (mixture of isomers)
→ 13	10
> COCCNC(=O)C[C@H]1CC[C@@H]2[C@@H](COc3ccc(NC(=O)c4cnccn4)cc3C(=O)N2C)O1
→ 17	11
> C[C@H](CO)N1C[C@H](C)[C@@H](CN(C)C(=O)c2ccncc2)Oc2cc(/C=C/c3ccccc3)ccc2S1(=O)=O
→ -18	-13
> C[C@H](CO)N1C[C@H](C)[C@@H](CN(C)Cc2ccccc2)Oc2c(NC(=O)Nc3ccc4c(c3)OCO4)cccc2C1=O
→ 8	13
> C[C@@H]1CN([C@H](C)CO)C(=O)c2cc(C#C[C@@H](C)O)cnc2O[C@@H]1CN(C)Cc1cccc(F)c1
→ -4	-3
> C[C@@H]1CN([C@H](C)CO)C(=O)Cc2cc(NS(=O)(=O)c3ccc(Cl)cc3)ccc2O[C@H]1CN(C)Cc1ccccc1
→ -19	-16
> CO[C@@H](CN(C)C(=O)c1ccc2c(c1)OCO2)[C@@H](C)CN([C@H](C)CO)S(=O)(=O)c1ccc(C)cc1
→ -9	0
> O=C(C[C@@H]1C=C[C@H](NC(=O)CCN2CCCCC2)[C@@H](CO)O1)Nc1ccccc1
→ 5	7
> O=C(C[C@@H]1CC[C@H]2[C@@H](COC[C@H](O)CN2C(=O)C2CC2)O1)NCc1ccccc1Cl
→ -4	-2
> C/C=C/c1ccc2c(c1)O[C@@H](CN(C)C(=O)NCCC)[C@H](C)CN([C@@H](C)CO)S2(=O)=O
→ -7	-4
> O=C(C[C@@H]1C[C@@H]2c3cc(NC(=O)c4ccc5c(c4)OCO5)ccc3O[C@@H]2[C@@H](CO)O1)NCc1ccc(Oc2ccccc2)cc1
→ 4	1
> CO[C@H]1CN(C)C(=O)c2cc(NS(=O)(=O)c3cn(C)cn3)ccc2OC[C@@H](C)N(Cc2cccc(F)c2)C[C@H]1C
→ 10	7
> CC(C)(C)OC(=O)CC[C@@]12N=C(c3ccc(OCCCO)cc3)O[C@@H]1c1ccccc1CN(Cc1ccccc1)C2=O
→ ?	nt
> C[C@@H]1CCCCO[C@H](CN(C)S(=O)(=O)c2cccs2)[C@@H](C)CN([C@H](C)CO)C(=O)c2cc(NC(=O)C3CCCCC3)ccc2O1
→ -4	-11
> Cc1noc(C)c1NC(=O)N(C)C[C@@H]1OCCCC[C@H](C)Oc2ccc(NC(=O)NC3CCCCC3)cc2C(=O)N([C@@H](C)CO)C[C@@H]1C
→ 30	11
> C[C@@H]1CN([C@H](C)CO)C(=O)Cc2cc(NC(=O)C3CCCCC3)ccc2O[C@@H]1CN(C)CC1CCCCC1
→ -14	-16
> CCCC#Cc1cnc2c(c1)C(=O)N([C@H](C)CO)C[C@H](C)[C@H](CN(C)C(=O)Nc1ccccc1F)O2
→ -15	-14
> O=C(c1ccc2c(c1)OCO2)N1C[C@@H]2N[C@H](C1)C2c1ccc(-c2cccnc2)cc1 (stereo partly specified)
→ ?	0
> C[C@@H]1CN([C@H](C)CO)C(=O)c2cc(C#Cc3ccncc3)cnc2O[C@H]1CN(C)C(=O)c1ccccc1F
→ ?	nt
> O=C(Nc1ccc(F)cc1)N1CC(=O)N2[C@H](CO)[C@@H](c3ccc(-c4ccccc4)cc3)[C@H]2C1
→ ?	nt
> CCNC(=O)C[C@H]1C=C[C@H](NC(=O)NC2CCCCC2)[C@H](CO)O1
→ 2	8
> C[C@H]1CN([C@@H](C)CO)C(=O)c2cc(NC(=O)Cc3cn(C)c4ccccc34)ccc2O[C@@H]1CN(C)S(C)(=O)=O
→ -6	1
> CCC(=O)N(C)C[C@H]1Oc2cc(-c3cccnc3)ccc2S(=O)(=O)N([C@@H](C)CO)C[C@@H]1C
→ 17	11
> CCCNC(=O)N1[C@H](C(=O)NC2CCC2)[C@@H](CO)[C@@H]2Cn3c(ccc(-c4ccccc4OC)c3=O)[C@@H]21
→ -3	3
> O=C(C[C@@H]1CC[C@@H]2[C@H](COC[C@@H](O)CN2Cc2nccs2)O1)NCc1ccccc1
→ 13	9
> C[C@@H]1CCCCO[C@H](CN(C)S(=O)(=O)c2cccs2)[C@H](C)CN([C@@H](C)CO)C(=O)c2cc(NC(=O)Nc3ccc(F)cc3)ccc2O1
→ -14	1

Complete entries from above. Order of screens: Vaccinia stage	Vaccinia stage Venus
Profile of C[C@@H]1CCCCO[C@H](CN(C)S(=O)(=O)c2cccs2)[C@@H](C)CN([C@H](C)CO)C(=O)c2cc(NC(=O)C3CCCCC3)ccc2O1 → -4	-11
Profile of CCCC#Cc1cnc2c(c1)C(=O)N([C@H](C)CO)C[C@H](C)[C@H](CN(C)C(=O)Nc1ccccc1F)O2 → -15	-14

The results go on.
Values run as follows: Vaccinia stage	Vaccinia stage Venus
> CO[C@H]1CN(C)C(=O)c2ccc(NC(=O)C3CC3)cc2OC[C@@H](C)N(Cc2cccnc2)C[C@H]1C
→ 3	-5
> C[C@H](CO)N1C[C@H](C)[C@H](CN(C)Cc2cccc(F)c2)Oc2ncc(C#C[C@@H](C)O)cc2C1=O
→ 9	0
> CO[C@@H]1CN(C)C(=O)c2ccc(NC(=O)C3CC3)cc2OC[C@H](C)N(C(=O)NC(C)C)C[C@H]1C
→ 8	13
> Cc1ccc(S(=O)(=O)N2C[C@H](O)COC[C@@H]3O[C@H](CC(=O)NCc4ccc(Cl)c(Cl)c4)CC[C@H]32)cc1
→ ?	nt
> C[C@H](NC(=O)C[C@@H]1C[C@H]2c3cc(NS(C)(=O)=O)ccc3O[C@H]2[C@@H](CO)O1)c1ccccc1
→ 8	8
> COCC(=O)N1[C@H](CO)[C@@H](c2ccccc2)[C@H]1CN(C)C(=O)c1cccnc1
→ 16	17
> C[C@@H]1CN([C@@H](C)CO)C(=O)c2cccc(NS(=O)(=O)c3cn(C)cn3)c2O[C@@H]1CN(C)S(=O)(=O)c1ccc(Cl)cc1
→ 21	14
> CC(C)CC#Cc1ccc2c(c1)O[C@H](CN(C)C(=O)Cc1ccncc1)[C@@H](C)CN([C@@H](C)CO)S2(=O)=O
→ -22	-15
> C[C@@H]1CCCCO[C@@H](CN(C)CC2CCCCC2)[C@H](C)CN([C@H](C)CO)C(=O)c2cc(NC(=O)Nc3ccc4c(c3)OCO4)ccc2O1
→ ?	nt
> C[C@H]1CCCCO[C@H](CN(C)Cc2ccc(C(F)(F)F)cc2)[C@@H](C)CN([C@@H](C)CO)C(=O)c2cc(NC(=O)c3ccccc3)ccc2O1
→ ?	nt
> C/C=C/c1ccc2c(c1)O[C@@H](CN(C)C(=O)C1CCCCC1)[C@@H](C)CN([C@H](C)CO)S2(=O)=O
→ -27	-22
> C[C@@H]1CN([C@H](C)CO)C(=O)c2cccc(NC(=O)CCCCCC(=O)Nc3ccccc3N)c2O[C@@H]1CN(C)C(=O)NC1CCCCC1
→ 15	7
> C[C@H](CO)N1C[C@H](C)[C@@H](CN(C)Cc2ccccc2)Oc2ccc(NC(=O)CCC(F)(F)F)cc2CC1=O
→ -23	-21
> CCS(=O)(=O)Nc1ccc2c(c1)C(=O)N(C)[C@@H]1CC[C@H](CC(=O)N3CCOCC3)O[C@H]1CO2
→ 3	4
> CNC(=O)C[C@@H]1CC[C@H]2[C@H](COc3ccc(NC(=O)c4cc(F)cc(F)c4)cc3C(=O)N2C)O1
→ -1	9
> O=C1CN(Cc2ccccc2)C[C@H]2[C@@H](c3ccc(Br)cc3)[C@H](CO)N12
→ 25	6
> C[C@H](O)C#Cc1ccc2c(c1)O[C@H](CN(C)C(=O)c1ccncc1)[C@H](C)CN([C@H](C)CO)S2(=O)=O
→ 21	15
> C[C@@H]1CCCCO[C@H](CN(C)C(=O)Nc2ccccc2)[C@@H](C)CN([C@H](C)CO)C(=O)c2cc(NC(=O)Nc3ccc(F)cc3)ccc2O1
→ 15	1
> C[C@@H]1CN([C@@H](C)CO)S(=O)(=O)c2ccc(-c3cccnc3)cc2O[C@@H]1CN(C)C(=O)CC1CC1
→ 19	4
> C[C@@H]1CCCCO[C@H](CN(C)S(=O)(=O)c2ccc(Cl)cc2)[C@H](C)CN([C@@H](C)CO)C(=O)c2cc(NC(=O)Nc3ccc4c(c3)OCO4)ccc2O1
→ 4	8
> C[C@@H]1CCCCO[C@H](CN(C)C(=O)C2CCCCC2)[C@H](C)CN([C@H](C)CO)C(=O)c2cc(NS(=O)(=O)c3cn(C)cn3)ccc2O1
→ 30	12
> O=C(C[C@H]1C[C@@H]2c3cc(NC(=O)Nc4ccccc4F)ccc3O[C@@H]2[C@H](CO)O1)NCC(F)(F)F
→ 14	8
> O=S(=O)(c1ccc(F)cc1)N1C[C@@H]2N[C@H](C1)C2c1ccc(-c2ccc(F)cc2)cc1 (stereo partly specified)
→ ?	12
> O=C(C[C@H]1C[C@@H]2c3cc(NC(=O)NC4CCCCC4)ccc3O[C@@H]2[C@@H](CO)O1)NCc1ccccc1
→ 5	9
> CN(C)CCCNC(=O)C[C@@H]1CC[C@@H](NC(=O)c2ccccc2F)[C@@H](CO)O1
→ -3	12
> O=C(CC1CC1)NC[C@H]1N[C@H](CO)[C@@H]1c1ccc(-c2ccc(F)cc2)cc1
→ -26	-14
> COC(=O)C[C@H]1CC[C@@H]2[C@@H](COc3ccc(NC(=O)c4cccc(OC)c4)cc3C(=O)N2C)O1
→ 3	4
> CCC(=O)Nc1ccc2c(c1)C(=O)N(C)C[C@@H](OC)[C@@H](C)CN(Cc1cccc(F)c1)[C@H](C)CO2
→ -4	0
> O=C(C[C@@H]1CC[C@H](NC(=O)C2CCOCC2)[C@@H](CO)O1)Nc1ccccc1
→ 10	4
> C[C@H]1CN([C@@H](C)CO)C(=O)c2cc(C#CCN(C)C)cnc2O[C@@H]1CN(C)C(=O)Cc1ccncc1
→ 16	5

Pulled by structure from the entries so far:
Values run as follows: Vaccinia stage	Vaccinia stage Venus
> C[C@@H]1CN([C@H](C)CO)C(=O)c2cccc(NC(=O)CCCCCC(=O)Nc3ccccc3N)c2O[C@@H]1CN(C)C(=O)NC1CCCCC1
→ 15	7
> CCS(=O)(=O)Nc1ccc2c(c1)C(=O)N(C)[C@@H]1CC[C@H](CC(=O)N3CCOCC3)O[C@H]1CO2
→ 3	4
> O=S(=O)(c1ccc(F)cc1)N1C[C@@H]2N[C@H](C1)C2c1ccc(-c2ccc(F)cc2)cc1 (stereo partly specified)
→ ?	12
> CO[C@@H]1CN(C)C(=O)c2ccc(NC(=O)C3CC3)cc2OC[C@H](C)N(C(=O)NC(C)C)C[C@H]1C
→ 8	13
> C[C@@H]1CN([C@@H](C)CO)C(=O)c2cccc(NS(=O)(=O)c3cn(C)cn3)c2O[C@@H]1CN(C)S(=O)(=O)c1ccc(Cl)cc1
→ 21	14
> C[C@@H]1CCCCO[C@H](CN(C)C(=O)C2CCCCC2)[C@H](C)CN([C@H](C)CO)C(=O)c2cc(NS(=O)(=O)c3cn(C)cn3)ccc2O1
→ 30	12

Remaining list, next part
Values run as follows: Vaccinia stage	Vaccinia stage Venus
> C/C=C/c1cnc2c(c1)C(=O)N([C@H](C)CO)C[C@H](C)[C@H](CN(C)C(=O)Nc1ccccc1F)O2
→ 5	6
> COCC(=O)N1CCCCN2[C@H](CO)[C@@H](c3ccc(C#Cc4ccccc4)cc3)[C@@H]2C1
→ ?	nt
> O=C(N[C@H]1CC[C@@H](CCNS(=O)(=O)c2ccccc2)O[C@H]1CO)c1cccnc1
→ -2	10
> COc1cccc(S(=O)(=O)N2C[C@@H](O)COC[C@@H]3O[C@@H](CC(=O)NCCCN4CCOCC4)CC[C@H]32)c1
→ 3	14
